GIRK2 activ – activators of human GIRK2 potassium channels; HEK293-GIRK2 thallium flux, Thallos fluorescence; actives 0.05% (n = 63,000); G protein-activated inward rectifier potassium channel 2 (Homo sapiens), P48051; calls only for hits at 25 µM; AID 1259325, 2017;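 active = among the strongest 0.2% of first-round signals and kept after retests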;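 also: first round at about 10 µM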
Target sequence (P48051 whole entry, looked up): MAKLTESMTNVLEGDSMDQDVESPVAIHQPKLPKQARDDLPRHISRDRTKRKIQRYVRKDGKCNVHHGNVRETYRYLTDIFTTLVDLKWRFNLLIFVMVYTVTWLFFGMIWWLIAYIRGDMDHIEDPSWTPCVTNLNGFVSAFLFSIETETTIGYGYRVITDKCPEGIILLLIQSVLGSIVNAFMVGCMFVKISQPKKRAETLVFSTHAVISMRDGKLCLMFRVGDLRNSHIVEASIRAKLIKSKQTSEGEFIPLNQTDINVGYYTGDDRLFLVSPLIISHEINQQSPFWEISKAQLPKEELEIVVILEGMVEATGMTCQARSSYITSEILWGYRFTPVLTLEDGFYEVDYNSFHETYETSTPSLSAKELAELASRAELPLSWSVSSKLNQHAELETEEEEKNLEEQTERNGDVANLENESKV
Calls only; i = inactive. A portion of the library. The share of hits here may be higher or lower than overall.

SMILES	GIRK2 activ
O=C1C(c2c[nH]c3ccccc23)=C(c2c[nH]c3ccccc23)C(=O)N1O	i
COC(=O)c1sccc1S(=O)(=O)NCCc1csc(-n2cccn2)n1	i
Cc1ccc(-c2ccc(N3CCN(S(=O)(=O)c4ccc(F)cc4F)CC3)nn2)cc1	i
O=C(CSc1nnc(N2CCN(C(=O)CC3CCCC3)CC2)s1)NCc1ccco1	i
O=C(CN1CCN(c2ccccc2F)C1=O)Nc1ccc2c(c1)Cc1ccccc1-2	i
Cn1c(=O)n(CCc2ccccc2)c(=O)c2c1nc1oc(-c3ccccc3)cn12	i
COCCn1c(-c2cccs2)nc2oc3ccccc3c(=O)c2c1=O	i
CC(=O)O[C@@H]1[C@@H](OC(C)=O)[C@H](C)O[C@@H](O[C@H]2[C@@H]3C=CO[C@@H](O[C@@H]4O[C@H](CO)[C@@H](O)[C@H](O)[C@H]4O)[C@@H]3[C@@]3(CO)O[C@@H]23)[C@@H]1OC(=O)/C=C/c1ccccc1	i
COc1ccc(N2C(=O)C3N=NN(Cc4ccccc4)C3C2=O)cc1Cl (centres undefined)	i
CCc1cccc(C)c1NC(=O)Cn1cc(S(=O)(=O)N2CCCCC2)ccc1=O	i
O=C(Cn1cnc2ccccc2c1=O)N1CC(c2nc(-c3cccs3)no2)C1	i
CSc1cccc(NC(=O)N2CCc3c(c(=O)c4cc(C)cc(C)c4n3C)C2)c1	i
CCOC(=O)COC(=O)c1cn(-c2cccc(F)c2)c(=O)c2ccccc12	i
COc1ccc(NC(=O)c2c(O)c3ccccc3n(-c3ccccc3)c2=O)cc1	i
COC1(CNS(=O)(=O)c2ccc(Br)s2)CCSC1 (centres undefined)	i
COc1ccc(C)cc1S(=O)(=O)NC1CCCC(OC(=O)Nc2ccc(F)cc2)C1 (centres undefined)	i
CCc1cc(CC)n(-c2nc3c(c(=O)n(Cc4ccccc4)c(=O)n3C)n2CCOC)n1	i
Cn1cccc1CN(Cc1cccs1)C(=O)Cn1c(=O)oc2ccccc21	i
O=C1NC(=NCCc2ccc(Br)cc2)S/C1=C\c1ccc2ncccc2c1	i
COC(=O)c1ccc(C(=O)N2CCC(Oc3ccc(C(F)(F)F)cn3)CC2)cc1	i
O=C(CSc1ccc(F)cc1)N1CCN(CCn2cccn2)CC1	i
CCCC(=O)N1CCN(C(=O)C(NC(=O)c2cccc(C)c2)S(=O)(=O)c2ccccc2)CC1 (centres undefined)	i
N#Cc1ccc(OC2CCN(S(=O)(=O)c3ccccc3)CC2)nc1	i
O=C(c1ccc(C(F)(F)F)cc1)N1CCN(Cc2nncn2C2CCCCC2)CC1	i
CCOC(=O)c1ccc(NC(=O)c2cc3nc(C)ccc3o2)cc1	i

Looked up one by one from the entries so far:
SMILES	GIRK2 activ
O=C(CSc1nnc(N2CCN(C(=O)CC3CCCC3)CC2)s1)NCc1ccco1	i
COc1ccc(N2C(=O)C3N=NN(Cc4ccccc4)C3C2=O)cc1Cl (centres undefined)	i
N#Cc1ccc(OC2CCN(S(=O)(=O)c3ccccc3)CC2)nc1	i
COCCn1c(-c2cccs2)nc2oc3ccccc3c(=O)c2c1=O	i

(cont.)
SMILES	GIRK2 activ
COc1ccc(C(=O)COc2coc(CSc3nncn3C)cc2=O)cc1	i
O=C(Nc1cc(C(F)(F)F)ccc1Cl)C1COCC(=O)N1Cc1cccs1 (centres undefined)	i
Cn1ccnc1SCC1CCN(C(=O)c2ccccc2Cl)CC1	i
COc1ccc(NC(=O)CSc2nnc(-c3ccc(OC)c(OC)c3)n2N)cc1	i
COc1ccc2c(c1)c(CC(=O)NCCCCNC(=O)c1ccc([N+](=O)[O-])cc1)c(C)n2C(=O)c1ccc(Cl)cc1	i
Cn1nc(C(=O)NCCc2csc3nc(-c4cccs4)nn23)ccc1=O	i
COc1cc(C)c(C(=O)O[C@H]2[C@@H](O)[C@H](n3ccc(=O)[nH]c3=O)O[C@@H]2CO)c(OC)c1	i
COc1ccc(NC(=O)CC(C)n2nc(C)c(Br)c2C)cc1 (centres undefined)	i
CCN(CC)CCCN1C(=O)c2oc3cc(C)c(C)cc3c(=O)c2C1c1ccc(OC)cc1 (centres undefined)	i
O=C(c1ccco1)N1N=C(c2ccccc2)CC1c1ccc2c(c1)OCO2 (centres undefined)	i
O=C(NCCCn1ccnc1-c1ccccc1)c1ccc(S(=O)(=O)N2CCCC2)cc1	i
Cc1cccc(C(=O)NC2CCN(C(=O)c3cn(-c4ccc(C)c(C)c4)nn3)CC2)c1	i
COC(=O)c1cccc(Nc2c(-c3nc(C(C)C)no3)cnc3nc(C)ccc23)c1	i
COC(=O)Cn1c(=O)c2c(nc3n(-c4cc(OC)ccc4OC)c(C)cn23)n(C)c1=O	i
Cc1csc(SCC2CCN(C(=O)c3ccc(OC(F)(F)F)cc3)CC2)n1	i
COc1ccc(S(=O)(=O)NCCc2csc(-c3ccc(C(F)(F)F)cc3)n2)cc1F	i
CCOc1ccc2nc(NC(=O)CCn3nnc4ccccc4c3=O)sc2c1	i
COc1ccc(CCNC(=O)c2nc(SC)ncc2Cl)cc1OC	i
O=C1/C(=C/c2ccc(F)cc2)Oc2cc(O)ccc21	i
O=C1NC(=O)C2C1C(c1ccccc1Cl)NN2Cc1ccccc1 (centres undefined)	i
O=S(=O)(NCCN1CCN(c2ccccc2F)CC1)c1ccccc1Cl	i
COC(=O)c1sccc1S(=O)(=O)N1C2CCC1COC2	i
COc1ccc(CC(C)(O)CNC(=O)Nc2cccc(C)c2)cc1 (centres undefined)	i
COc1ccc(C(=O)/C=C/c2c(F)cccc2Cl)c(OC)c1	i
O=C(COc1ccc(-n2cccn2)nn1)NCc1ccccc1Cl	i

Reformatted in CSV form: entries from further up
mol,GIRK2 activ
Cc1cccc(C(=O)NC2CCN(C(=O)c3cn(-c4ccc(C)c(C)c4)nn3)CC2)c1,i
COC(=O)c1cccc(Nc2c(-c3nc(C(C)C)no3)cnc3nc(C)ccc23)c1,i
COC(=O)Cn1c(=O)c2c(nc3n(-c4cc(OC)ccc4OC)c(C)cn23)n(C)c1=O,i
Cc1csc(SCC2CCN(C(=O)c3ccc(OC(F)(F)F)cc3)CC2)n1,i
COc1ccc(S(=O)(=O)NCCc2csc(-c3ccc(C(F)(F)F)cc3)n2)cc1F,i
CCOc1ccc2nc(NC(=O)CCn3nnc4ccccc4c3=O)sc2c1,i
COc1ccc(CCNC(=O)c2nc(SC)ncc2Cl)cc1OC,i

(listing goes on)
SMILES	GIRK2 activ
O=C(CSc1ccc(-c2nc(-c3ccccc3)no2)cn1)NCc1ccccc1F	i
Cn1nnn(-c2ccc(NC(=O)C(=O)c3c[nH]c4ccccc34)cc2)c1=O	i
O=C(NCc1ccc(C(O)c2cccs2)s1)Nc1ccccc1 (centres undefined)	i
O=Nc1c(-c2c(O)[nH]c3ccccc23)[nH]c2ccccc12	i
CC(C)(C)C(O)CCNC(=O)C1(c2ccc(F)cc2)CC1 (centres undefined)	i
Cc1ccc([N+](=O)[O-])cc1S(=O)(=O)NCc1ccccn1	i
CCc1ccc(-c2noc(Cn3cnc4c(nnn4Cc4cccc(C(F)(F)F)c4)c3=O)n2)cc1	i
CC(C)Sc1cccc(C(=O)N(Cc2cccnc2)c2nc3ccc(S(C)(=O)=O)cc3s2)c1	i
CC(C(=O)NCCOc1ccc(-c2ccccn2)nn1)n1nc(-c2cccs2)ccc1=O (centres undefined)	i
CCOc1coc(C(=O)NCc2cccc(OC)c2)cc1=O	i
CC(C)c1cc(=O)[nH]c(-n2nc(C3CC3)cc2NC(=O)Cc2ccc(F)cc2)n1	i
O=C(NCCC(O)c1ccc2c(c1)OCO2)NCc1cccs1 (centres undefined)	i
COc1cccc(C(=O)N2CCN(Cc3c(C)noc3C)CC2)c1	i
CC1CC(C)CN(C(=O)CSCC(=O)O)C1 (centres undefined)	i
Cc1cc(=O)n(CC(=O)Nc2ccc3c(c2)OCCO3)c(N2CCCC2)n1	i
O=C(NCC1(c2ccccc2)CCOCC1)C(=O)Nc1cccnc1	i
CC(C)Sc1ccc(CC(=O)NCC2CCN(C(=O)c3ccoc3)CC2)cc1	i
Cc1ccc2c(c1)CCCN2C(=O)C1CCN(c2ccc(-c3ccncc3)nn2)CC1	i
CN1C(=O)c2[nH]nc(-c3ccccc3O)c2C1c1ccccc1 (centres undefined)	i
COCCNC(=O)c1c(N)n(N)c2nc3ccccc3nc12	i
COc1ccc(OC)c2[nH]c(=O)c(CCNC(=O)c3ccc(S(=O)(=O)N(C)C)cc3)cc12	i
O=C(Nc1cc(N2CCOCC2)ncn1)NC1(C(F)(F)F)Oc2ccccc2O1	i
Brc1cccc(-n2nnnc2-c2nc3ccccc3[nH]2)c1	i
COc1ccc(C2CC3C4NN=C(CCC(=O)NCc5ccc(SC)cc5)N4C=CN3N2)cc1 (centres undefined)	i
CS(=O)(=O)c1ccc2nc(N3CCN(C(=O)/C=C/c4cccs4)CC3)sc2c1	i
The list continues.
SMILES	GIRK2 activ
Cc1c(CNC(=O)Cc2noc3ccccc23)sc2nc(-c3ccc(F)cc3)cn12	i
CCN1C(=O)C(C)(C)COc2cc(NC(=O)c3ccc(=O)n(C)n3)ccc21	i
COc1ccccc1Oc1ccc(S(=O)(=O)NC2(C(=O)O)CCCCC2)cc1	i
O=C(CN1CC(c2nc(Cc3ccccc3)no2)C1)N1CCN(c2ccccc2)CC1	i
Cc1ccc(C2NC(=O)N(CC(=O)Nc3cc(C)cc(C)c3)C3=C2C(=O)OC3)cc1 (centres undefined)	i
CCOC(=O)c1ccccc1NC(=O)CN1CCC(c2nnc(C(F)(F)F)o2)CC1	i
COC(=O)N1CCC(CNC(=O)CSCc2ccccc2)CC1	i
NC(=O)C1CCN(Cc2cc(=O)oc3cc(-c4ccccc4)c(O)cc23)CC1	i
O=C(/C=C/C1=Cc2ccccc2OC1)Nc1ccc(Cl)cc1	i
O=C(NCCc1ccncc1)c1ccnc2nc[nH]c12	i
CN(C)c1ccc(C(=O)NCC(C)(O)c2cccs2)cc1 (centres undefined)	i
COc1ccc(-c2coc3ncnc(N)c23)cc1	i
CC(C)(C)NC(=O)NCc1nn(C2CCCC2)c(=O)c2ccccc12	i
CSc1ccccc1NC(=O)c1ccc(S(=O)(=O)Nc2cccnc2)o1	i
COC(=O)Cn1c(=O)c2c(nc3n(-c4cccc(C)c4C)c(C)c(C)n23)n(C)c1=O	i
CCNC(=O)N1CCCC(c2nnc(-c3ccc4c(c3)OCO4)o2)C1 (centres undefined)	i
CN(C)c1ccc(NC(=O)c2ccc(S(=O)(=O)N3CCOCC3)cc2)cc1	i
CCN(CC)C(=O)Oc1ccc2c(=O)c(Oc3ccc(C(=O)OC)cc3)c(C)oc2c1	i
O=C(c1c[nH]c2ccccc12)N1CCC(CSCc2ccco2)CC1	i
CCOC(=O)C(=O)Nc1ccc(-c2ccn[nH]2)cc1	i
COC(=O)C(Cc1c[nH]c2ccccc12)NC(=O)c1cnn2c1OCCC2 (centres undefined)	i
CC[C@]1(O)C[C@H]2CN(CCc3c([nH]c4ccccc34)[C@@](C(=O)OC)(c3cc4c(cc3OC)N(C)[C@H]3[C@@](O)(C(N)=O)[C@H](O)[C@]5(CC)C=CCN6CC[C@]43[C@@H]65)C2)C1	i
O=C(NCc1cccc(-c2nccs2)c1)c1cc(Cl)ccc1Cl	i
Cc1cc(C)c2c(n1)nn1c(N3CCN(CCO)CC3)cc(C)nc21	i
COCCN(Cc1ccoc1)S(=O)(=O)c1ccc(F)c(C)c1	i

Ordered by length of the SMILES (ascending): part of the list above
SMILES	GIRK2 activ
O=C(NCCc1ccncc1)c1ccnc2nc[nH]c12	i
CN(C)c1ccc(C(=O)NCC(C)(O)c2cccs2)cc1 (centres undefined)	i
O=C(/C=C/C1=Cc2ccccc2OC1)Nc1ccc(Cl)cc1	i
CSc1ccccc1NC(=O)c1ccc(S(=O)(=O)Nc2cccnc2)o1	i
COC(=O)C(Cc1c[nH]c2ccccc12)NC(=O)c1cnn2c1OCCC2 (centres undefined)	i
CC[C@]1(O)C[C@H]2CN(CCc3c([nH]c4ccccc34)[C@@](C(=O)OC)(c3cc4c(cc3OC)N(C)[C@H]3[C@@](O)(C(N)=O)[C@H](O)[C@]5(CC)C=CCN6CC[C@]43[C@@H]65)C2)C1	i

(cont.)
SMILES	GIRK2 activ
CCOc1ccc(-c2noc(-c3sccc3S(=O)(=O)N(C)c3ccc(OC)cc3)n2)cc1	i
COc1cc(C)c(S(=O)(=O)N2CCCC(C)C2)cc1C (centres undefined)	i
O=C(C1CCCC1)N1CC(c2nc(Cc3ccccc3)no2)C1	i
COc1ccc(-c2[nH]c(=S)ncc2-c2ccc(Cl)cc2)c(O)c1	i
Cn1nc(CNC(=O)C2CCN(S(C)(=O)=O)CC2)cc1-c1ccco1	i
COCCCn1cnc2c(-c3ccccc3)cn(CC(=O)Nc3cccc(Br)c3)c2c1=O	i
O=C(CSc1nnc(N2CCN(c3ccc(F)cc3)CC2)s1)Nc1ccc(C(F)(F)F)cc1	i
CSCC(C)(O)CNC(=O)Nc1ccccc1C(F)(F)F (centres undefined)	i
COC(=O)[C@]12C(=O)[C@H](C)O[C@@H]3OC(=O)[C@](C)(C[C@H]4[C@]5(CO5)C5=CC(=O)OC(C)(C)C5=CC[C@@]41C)[C@@H]32	i
O=C(Nc1ccncc1)c1cc([N+](=O)[O-])ccc1Cl	i
Cc1nc(SCc2ccccc2)[nH]c(=O)c1CC(=O)NCCc1c[nH]c2ccccc12	i
COc1ccc(NC(=O)Cn2nc3c(Oc4cccc(OC)c4)nccn3c2=O)cc1	i
CS(=O)(=O)N1CCC(C(=O)NCC2(c3ccc(F)cc3)CC2)CC1	i
COc1ccc(C(=O)Oc2ccc3c(=O)c(-c4ccc(OC)c(OC)c4)coc3c2)cc1	i
O=C(c1ccc2nsnc2c1)N(CCc1cccs1)C1CC1	i
COc1ccccc1NC(=O)c1cc2c(OCc3ccccc3C)cccc2[nH]1	i
COc1ccccc1C(=O)N1CCN(c2oc(/C=C/c3ccccc3Cl)nc2C#N)CC1	i
O=C1CCSCC(C(=O)NCCc2c[nH]c3ccccc23)N1 (centres undefined)	i
O=C(CSc1nc2ccccc2c(=O)n1CCCN1CCCC1=O)Nc1ncn[nH]1	i
COC(=O)[C@H](O)[C@H]1C(C)(C)[C@H](OC(=O)C(C)C)[C@@]2(O)C(=O)[C@]1(C)C1CC[C@]3(C)C(CC(=O)O[C@H]3c3ccoc3)[C@]13O[C@@H]32 (some centres undefined)	i
CS(=O)(=O)N1CCN=C1SCc1ccccc1F	i
CC1CC(=O)C2=C(C1)C1OC1C1(O)C2C(=O)c2cccc(O)c2C1O (centres undefined)	i
COc1ccc(Cl)cc1NC(=O)CN1CCCCC1	i

Assay outcomes (PubChem)
